Compound activity: PubChem, several laboratories
Mtb growth: M. tuberculosis H37Rv growth inhibitors, H37Rv strain (AID 1626) | M. tuberculosis H37Rv growth inhibition; higher % means a stronger effect | inhibition, % at 10 µM; hits with a dose series show IC50 in µM | 220,000 tested, 0.95% active;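 active = confirmed in a dose series; inconclusive = inhibition above 80% but not taken into the dose series; inactive = below 80% or under 30% at every dose of the series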;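 also: bacteria incubated seven days before Alamar blue readout; 0% = bacteria only wells and 100% = bacteria with antibiotic wells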
YopH inh: YopH (Yersinia) phosphatase inhibition; AID 898; 140,000 tested, 0.16% active; inhibition, %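 (about 10 µM by stock and volumes)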; fluorescence Ex485/Em525;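 active = inhibition of 50% or more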;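 also: controls were vehicle for no effect and minimum signal wells for full effect; inactives centre near -20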
Mtb bLac sens: beta-lactam sensitization of Mtb H37Rv; inhibition, % at 25 µM; 330,000 tested, 0.27% active; AID 434955; M. tuberculosis H37Rv growth with meropenem, percent inhibition; hits of this screen are not shown here;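 active = about 74% or more and at least 40 points above the plate without the antibiotic, then above 30% in a dose series; inconclusive = first-round hits that could not be retested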;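 also: growth measured after seven days incubation then overnight dye step; 0% = bacteria only wells and 100% = bacteria with antibiotic; twin plates without the antibiotic show which effects depend on it; some results filed as inactive read as strong as hits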
Arbovirus inh: antivirals against arbovirus infection. arbovirus infection cell-based antiviral screen. inhibition, % at 10 µM. 200,000 tested, 0.37% active. AID 1251;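 active = inhibition from about 30%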;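 also: bluetongue infection of BSR cells; cell survival read as ATP light after 72 h; 0% = infected wells without compound and 100% = uninfected wells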
RecA intein inh: blocks M. tuberculosis RecA intein splicing; inhibition, %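 (about 9 µM by stock and volumes)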; P9WHJ3; cell-free RecA intein splicing, fluorescence; 290,000 tested, 0.75% active; in the data active = inhibition above about 30%; inconclusive = no clear call, values can overlap the other calls;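 also: 0% = vehicle wells and 100% = reference inhibitor control wells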
Target sequence (P9WHJ3 whole entry, looked up): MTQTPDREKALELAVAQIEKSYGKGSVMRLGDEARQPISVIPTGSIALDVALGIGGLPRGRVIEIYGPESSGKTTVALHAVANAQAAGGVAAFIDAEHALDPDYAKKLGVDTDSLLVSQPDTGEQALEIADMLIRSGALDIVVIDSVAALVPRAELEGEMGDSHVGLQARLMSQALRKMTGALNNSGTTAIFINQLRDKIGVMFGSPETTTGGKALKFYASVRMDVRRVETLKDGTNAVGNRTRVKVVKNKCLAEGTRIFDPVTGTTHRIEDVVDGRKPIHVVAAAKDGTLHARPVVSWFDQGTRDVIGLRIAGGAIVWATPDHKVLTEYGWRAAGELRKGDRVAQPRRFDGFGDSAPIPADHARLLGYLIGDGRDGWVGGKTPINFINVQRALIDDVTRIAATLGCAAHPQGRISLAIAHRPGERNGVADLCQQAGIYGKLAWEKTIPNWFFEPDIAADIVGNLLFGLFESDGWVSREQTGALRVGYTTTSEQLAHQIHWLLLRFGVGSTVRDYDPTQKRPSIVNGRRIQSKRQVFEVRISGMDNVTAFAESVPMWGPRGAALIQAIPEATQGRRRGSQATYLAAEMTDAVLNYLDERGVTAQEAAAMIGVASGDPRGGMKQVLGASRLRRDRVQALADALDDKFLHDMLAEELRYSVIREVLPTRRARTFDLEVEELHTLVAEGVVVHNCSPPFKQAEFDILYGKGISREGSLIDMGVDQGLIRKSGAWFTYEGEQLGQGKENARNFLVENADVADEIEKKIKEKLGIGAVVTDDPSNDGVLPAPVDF
Arbovirus inh repeat: second read-out of Arbovirus inh, no call of its own (marks repeat the call); inhibition, %; measured here: 10K subset replicate screen; many hits read low in the repeat;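 first of two repeat runs on a subset; 0% = infected and 100% = uninfected wells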
* = called active by the depositor; u = inconclusive; x = no result given.

The first two records as a preview:
SMILES | Mtb growth | YopH inh | Mtb bLac sens | Arbovirus inh | RecA intein inh | others
O=C(/C=C/c1ccco1)Nc1ccccc1N1CCCC1 | 5% | x | 96 | 8 | 0.1
CC(=O)C1=C(O)CC(c2ccccc2)CC1=NCCc1ccccc1 (stereo not drawn) | 10% | x | -5 | 1 | x

The whole of this part, from the first entry:
SMILES | Mtb growth | YopH inh | Mtb bLac sens | Arbovirus inh | RecA intein inh | others
O=C(/C=C/c1ccco1)Nc1ccccc1N1CCCC1 | 5% | x | 96 | 8 | 0.1
CC(=O)C1=C(O)CC(c2ccccc2)CC1=NCCc1ccccc1 (stereo not drawn) | 10% | x | -5 | 1 | x
COC(=O)[C@@H]1C[C@@]2(O)[C@H](O)[C@H](O)[C@H](O)C[C@H]2N1C/C=C/c1ccccc1 | -11% | x | -10 | x | 0.3
COc1ccc(NC(=O)NNC(=O)c2ccc(-c3ccccc3)cc2)cc1 | x | x | -8 | x | -2.0
CC(C)C(NS(=O)(=O)c1cccc2nsnc12)C(=O)NCCC1=CCCCC1 (stereo not drawn) | -3% | -1 | 0 | -1 | 2.4
CC(C)c1ccc(S(=O)(=O)N2CCC3(CC2)OCCO3)cc1 | x | x | -5 | x | -1.5
O=C(O)CCC(=O)N1CN2CN(C(=O)CCC(=O)O)CC([N+](=O)[O-])(C2)C1 | 2% | x | -3 | x | -1.9
O=C(NCC(c1ccco1)N1CCN(c2ccc(F)cc2)CC1)OCc1ccccc1 (stereo not drawn) | 15% | -27 | 14 | 12 | 0.2
CCOc1cc2c(cc1OC)C(c1cccc([N+](=O)[O-])c1)NCC2 (stereo not drawn) | -6% | x | 3 | 0 | -2.7
Nc1ccc(-c2nc3ncccc3o2)cc1 | x | x | 4 | x | -0.7
Cc1ccc(-c2nc(N)c3c(-c4ccc(C)cc4)nn(C(C)(C)C)c3n2)cc1 | 6% | -30 | -14 | 2 | -3.5
COc1ccc(Nc2ncnc3ccccc23)cc1 | 2% | -11 | -7 | 1 | -2.6
O=C(O)C1C2CC3C(OC(=O)C31)C2Cl (stereo not drawn) | 5% | -27 | -3 | -3 | -1.6
CCOC(=O)c1c(C)[nH]c(N=Nc2ccccc2C)c1C | 30% | 4 | 54 | -16 | 13
O=C(c1ccco1)N(Cc1ccc(Cl)cc1)C1CCS(=O)(=O)C1 (stereo not drawn) | x | x | 7 | x | 0.4
O=C(Cn1cncn1)c1ccc(F)cc1F | 3% | -9 | 2 | 8 | 2.6
CCCCOC(=O)c1ccc(NC(=O)c2cnccn2)cc1 | 79% | -10 | 96 | 0 | -0.1
Cn1c(CNC(=O)c2ccco2)nnc1SCC(=O)N1CCN(c2ccccc2F)CC1 | x | x | 1 | x | -1.0
Cc1nc(NC(=O)CSc2nnnn2C)sc1C | -11% | -32 | -4 | -6 | 2.5
COc1ccc(CCCc2nnc(SCC(=O)Nc3ccc(C)c(C)c3)o2)cc1 | 55% | 7 | 86 | 1 | -2.6
CCc1nc2c(cnn2-c2ccc(Cl)cc2)c(=O)n1-c1ccc2c(c1)OCCO2 | -3% | -3 | -4 | 10 | 2.4
CCOc1ccc(C(=O)Oc2cc(C)[nH]c(=O)c2[N+](=O)[O-])cc1 | x | x | -1 | x | -4.6
Cc1ccc(-c2csc3ncnc(Sc4nnc(CN5CCCCCC5=O)o4)c23)cc1 | 4% | 1 | u | -26 | 11
Cc1noc(C)c1C(=O)Nc1nccs1 | x | x | -9 | x | -5.0
CC1CCN(c2ccccc2N)CC1 | -9% | 7 | -4 | 6 | -0.7
O=C(COC(=O)c1ccccc1SCC(=O)NC1CCCCC1)NC1CCCCC1 | -8% | -12 | 9 | 2 | -1.3
CCN(CC)C(=O)c1sc(NC(=O)C(Sc2ccccc2)c2ccccc2)c(C(=O)OC(C)C)c1C (stereo not drawn) | 11% | 14 | 2 | 2 | -6.4
CCC1=C(OC(=O)N(CC)CC)N2C(=O)OC(=NCCc3c[nH]c4ccccc34)[C@]2(C)[C@H]2C1=CC[C@H]1C(=O)NC(=O)[C@H]12 | -9% | x | -11 | x | 0.7
Cc1nc2cc(NC(=O)CS(=O)(=O)c3ccccc3)ccc2s1 | x | x | -10 | x | 0.5
CC1(C)Cc2c(sc(NC(=O)c3ccco3)c2C#N)CO1 | -9% | -10 | -4 | -5 | 3.6
Cc1ccc(OCC(=O)OCC(=O)c2ccccc2)cc1C | x | x | -1 | x | -1.9
Cc1cccc(-n2cnc(C(=O)N/N=C\c3ccc(Br)cc3)c2)n1 | 1% | -9 | -2 | 1 | 0.9
Cc1ccc(C(C)C)c(OCC(O)CN2CC(C)OC(C)C2)c1 (stereo not drawn) | 4% | -38 | 3 | -6 | x
CCOC(=O)c1ccc(NC(=O)N2CCN(c3cccc(OC)c3)CC2)cc1 | 93% | x | 2 | -8 | -3.9
O=C(CN1CCN(c2ccccc2F)CC1)NCc1ccccc1 | x | x | 4 | x | -0.2
Cc1cc(OCC(=O)Nc2c(C)n(C)n(-c3ccccc3)c2=O)ccc1[N+](=O)[O-] | x | x | -2 | x | 0.7
COc1cc(/C=C/C(=O)N2CC(C)OC(C)C2)cc(OC)c1OC (stereo not drawn) | x | x | -6 | x | -2.5
COc1cc2c(cc1OC)CN(C(=O)c1ccccc1C(=O)O)CC2 | -3% | -31 | -4 | 4 | -5.7
CCCCOc1cccc(C(=O)NC(=S)Nc2cccnc2)c1 | 7% | -28 | 5 | 3 | 1.3
CCOC(=O)c1sc(=NC(=O)CCS(=O)(=O)c2ccccc2)n(C)c1C | -1% | x | -5 | 11 | -1.9
OC(CN1C2=NCCCN2c2ccccc21)c1ccc(Br)cc1 (stereo not drawn) | 1% | -2 | 6 | -6 | 0.6
O=C(Nc1ccc(N2CCN(C(=O)c3ccco3)CC2)c(Cl)c1)c1cccnc1 | 0% | x | -4 | -3 | -0.9
CCOc1ccc(C(C)NC(=O)c2ccccc2OCc2c(C)noc2C)cc1OCC (stereo not drawn) | x | x | -8 | x | 2.0
CSc1ncccc1C(=O)OCc1ccc([N+](=O)[O-])cc1 | 1% | x | -5 | 8 | 0.1
Cc1ccc(/C=C2\SC(=S)N(CCC(=O)NNC(=O)c3ccncc3)C2=O)cc1 | -30% | x | -2 | x | -1.5
CC1(C)C(c2ccccc2)=NC(c2ccc(F)cc2)N1O (stereo not drawn) | -3% | -29 | 15 | 1 | -4.5
COc1cc(Nc2nnc(C)s2)c(Cl)cc1Cl | -7% | -49 | 5 | 5 | 0.4
O=C(O)c1nc2ccccc2nc1C(=O)O | -4% | -40 | 3 | 10 | -1.0
CCN(Cc1ccccc1)C(=O)Cn1cnc2c1c(=O)n(C)c(=O)n2C | -6% | -37 | 0 | 2 | -3.2
Cc1cc(=O)n2nc(N3CCC(C(=O)NCCc4ccccc4)CC3)sc2n1 | -5% | 3 | -13 | 1 | -2.1
New compounds follow:
SMILES | Mtb growth | YopH inh | Mtb bLac sens | Arbovirus inh | RecA intein inh | others
O=C(NC1CCCCCCC1)c1cccnc1 | x | x | 17 | x | -1.7
COc1ccc(C(=O)NCc2nnc(SCC(=O)N3CCCC3)o2)cc1 | x | x | -5 | x | -0.2
CCOC(=O)C1(Cc2cccc(Cl)c2)CCCN(C2CCN(C(C)=O)CC2)C1 (stereo not drawn) | 4% | x | -4 | -4 | 8.3
C/C(=N\Nc1cc(C)nc(NCc2ccccc2)n1)c1ccc([N+](=O)[O-])cc1 | 1% | x | 0 | x | 0.3
CC1(C)CC(=O)C(C2NCCc3ccccc32)=C(O)C1 (stereo not drawn) | -7% | -10 | -3 | 11 | -3.1
CC(=O)Nc1ccc(S(=O)(=O)Nc2cccc3[nH]ncc23)cc1 | -4% | x | -4 | 7 | -1.2
COc1ccc(Cc2nnc3sc(SCC(=O)Nc4ccccc4)nn3c2=O)cc1OC | x | x | -3 | x | 4.5
O=C(Nc1cccc(Br)c1)c1ccn[nH]1 | -8% | -35 | -6 | 0 | -2.3
Cc1nc2c(=O)[nH]c(=S)n(C)c2nc1C | -4% | -9 | 3 | -1 | -12
CC(C)c1ccc(NC(=O)CSc2nnc(CN3CCOCC3)n2C)cc1 | x | x | 3 | x | 2.2
O=C(NCCCN1CCOCC1)c1ccc(S(=O)(=O)Nc2cccc(C(F)(F)F)c2)cc1 | x | x | 0 | x | 1.9
Cn1c(NCCN2CCOCC2)nc2c1c(=O)n(Cc1cccc(Cl)c1)c(=O)n2C | -11% | -42 | 0 | -9 | 0.4
COc1cccc(C(c2nnnn2CS(=O)(=O)c2ccc(C)cc2)N2CCN(C)CC2)c1OC (stereo not drawn) | -7% | -30 | 4 | -16 | 0.8
Clc1cccc(-c2nnc(-c3ccccc3)o2)c1 | 11% | -19 | 8 | -2 | 3.9 | Arbovirus inh repeat=-3
Cc1cc(C)cc(C(=O)OCC(=O)NC2CCCC2)c1 | x | x | 3 | x | 2.6
Cc1nn(C(=O)Cn2ccc([N+](=O)[O-])n2)c(C)c1Cl | x | x | 1 | x | 0.3
CCOC(=O)Cc1csc(NC(=O)CSc2nc(N)c3c(C)c(C)sc3n2)n1 | -2% | 10 | -3 | -2 | -4.7
CCOC(=O)c1c(CN2CCOCC2)n(-c2ccccc2)c2cc(Br)c(OC)cc12 | -6% | 2 | 12 | -36 | 20
CC(C)(C)OC(=O)N1CCCN(C(=O)Nc2ccc(C(F)(F)F)cc2)CC1 | 6% | x | -2 | x | 0.5
CCN(C(=O)CSc1nc2cc(C(=O)O)ccc2c(=O)n1Cc1ccccc1)c1ccccc1 | x | x | -1 | x | 0.9

In the list so far, these have a thiophene ring, fused or not.
SMILES | Mtb growth | YopH inh | Mtb bLac sens | Arbovirus inh | RecA intein inh | others
Cc1ccc(-c2csc3ncnc(Sc4nnc(CN5CCCCCC5=O)o4)c23)cc1 | 4% | 1 | u | -26 | 11
CCN(CC)C(=O)c1sc(NC(=O)C(Sc2ccccc2)c2ccccc2)c(C(=O)OC(C)C)c1C (stereo not drawn) | 11% | 14 | 2 | 2 | -6.4
CC1(C)Cc2c(sc(NC(=O)c3ccco3)c2C#N)CO1 | -9% | -10 | -4 | -5 | 3.6
CCOC(=O)Cc1csc(NC(=O)CSc2nc(N)c3c(C)c(C)sc3n2)n1 | -2% | 10 | -3 | -2 | -4.7

Looked up one by one from the list above (seven):
SMILES | Mtb growth | YopH inh | Mtb bLac sens | Arbovirus inh | RecA intein inh | others
CCOC(=O)Cc1csc(NC(=O)CSc2nc(N)c3c(C)c(C)sc3n2)n1 | -2% | 10 | -3 | -2 | -4.7
CC(C)(C)OC(=O)N1CCCN(C(=O)Nc2ccc(C(F)(F)F)cc2)CC1 | 6% | x | -2 | x | 0.5
Cc1cc(C)cc(C(=O)OCC(=O)NC2CCCC2)c1 | x | x | 3 | x | 2.6
CCN(C(=O)CSc1nc2cc(C(=O)O)ccc2c(=O)n1Cc1ccccc1)c1ccccc1 | x | x | -1 | x | 0.9
Cc1nn(C(=O)Cn2ccc([N+](=O)[O-])n2)c(C)c1Cl | x | x | 1 | x | 0.3
COc1cccc(C(c2nnnn2CS(=O)(=O)c2ccc(C)cc2)N2CCN(C)CC2)c1OC (stereo not drawn) | -7% | -30 | 4 | -16 | 0.8
Clc1cccc(-c2nnc(-c3ccccc3)o2)c1 | 11% | -19 | 8 | -2 | 3.9 | Arbovirus inh repeat=-3

The list goes on.
SMILES | Mtb growth | YopH inh | Mtb bLac sens | Arbovirus inh | RecA intein inh | others
COc1cc(OC)c(OC)cc1/C=C/C(=O)c1ccc(NS(=O)(=O)c2ccc(C)cc2)cc1 | 14% | -35 | 1 | 26 | 1.0
Cc1oc2c(CN3CCC(C)CC3)c(O)ccc2c(=O)c1-c1ccccc1 | x | x | -10 | x | -1.7
Cn1c(=N)n(CC(=O)c2ccc(Cl)c(Cl)c2)c2ccccc21 | x | x | 7 | x | -0.2
FC(F)c1nc2ccccc2[nH]1 | -4% | x | -1 | -1 | -4.5
O=C(CCn1c(=O)[nH]c2ccccc2c1=O)NCCCN1CCN(c2cccc(Cl)c2)CC1 | -9% | -19 | 2 | -20 | -5.7
NS(=O)(=O)c1ccc(-c2cccc(/C=C3\SC(=O)NC3=O)c2)cc1 | x | x | 81 | x | 3.3
CC/C(=N/Nc1ccccc1)c1cnnc(SC)n1 | 1% | -26 | 8 | -1 | -2.3
Cc1cc(C(=O)C(=O)O)c(C)n1-c1ccc(Cl)cc1 | -3% | x | 0 | 0 | -1.0
Cc1ccccc1C(=O)c1c[nH]c(C(=O)NCc2ccco2)c1 | 7% | -33 | 21 | -1 | 1.4
O=C(Nc1ccc(Oc2ccc(NC(=O)c3ccco3)c(NC(=O)c3ccco3)c2)cc1)c1ccco1 | 0% | -2 | 2 | -16 | 0.4
COc1ccc(/C=C/C(=O)NCCCNC(=O)/C=C/c2ccc(OC)c(OC)c2)cc1OC | x | x | 1 | x | -1.4
COc1ccc(/C=C/C(=O)OCC(=O)N2CC(=O)Nc3ccccc32)cc1S(=O)(=O)N1CCOCC1 | 3% | x | 4 | 3 | 2.3

Some of the compounds tested; rates above refer to the full screens.
